# From PubChem
# D2 PAM: potentiates the human D2 dopamine receptor allosterically; potentiation, % (test concentration not listed); actives 0.23% (n = 360,000); AID 624464; DiscoveRx D2 beta-arrestin cells, luminescence, 90 min; 100% = 57 uM dopamine signal; active = potentiation of 50% or more; inconclusive = 30% to 50%; inactive = 30% or less;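 also: compound concentration not given in the record; tested on top of an EC20 dose of dopamine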
#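 D2 cells co-treated with compound plus 50 nM dopamine (EC20) for 90 min at 37 deg C to detect potentiation. Beta-arrestin recruitment was read as enzyme-fragment luminescence after 1 h at ambient temperature. Full response was set by 57 uM dopamine.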
# Menin-MLL FL inh: menin-MLL binding inhibition, fluorescein peptide. Fluorescence polarization, fluorescein-MLL peptide displacement from menin. FP activity change, % at 61.4 µM. 290,000 tested, under 10 active. AID 1766; inconclusive = falling polarisation curve, or a change in total fluorescence; inactive = total fluorescence flat and polarisation flat or rising; no compound was filed as active; the % refers to the polarisation; negative = inhibition;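 also: % of control where 0% means no effect; inhibitors lower the polarisation; unlabelled MLL peptide was the positive control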
# ClpP mod: qHTS Assay for Activators of ClpP; ATP-dependent Clp protease proteolytic subunit (Bacillus subtilis (strain 168)), P80244; actives 1.9% (n = 340,000); purified B. subtilis ClpP, FRET peptide cleavage, 20 min; Potency, µM (series often up to 57.5 µM), inactives show at the top dose activity change, negative = active; active = well fitted falling curve with a large enough effect; inconclusive = small, poorly fitted or top-dose-only effect; inactive = no such curve, though single readings can be large or run the other way; also: potency is read from the fitted curve at half-maximal effect; the source files actives as falling curves though it sought activators and does not explain the sign; nearly all actives have a fitted effect of over 65% in size; many hits overshoot -100%
# Target sequence (P80244 whole entry, looked up): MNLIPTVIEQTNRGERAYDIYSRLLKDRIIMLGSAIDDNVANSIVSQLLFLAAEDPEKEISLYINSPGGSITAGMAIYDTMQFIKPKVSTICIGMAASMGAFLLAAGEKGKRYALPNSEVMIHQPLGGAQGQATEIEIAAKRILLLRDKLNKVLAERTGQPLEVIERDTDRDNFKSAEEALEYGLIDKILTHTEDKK
#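 Purified B. subtilis ClpP, 10 microg/mL final in Tris/HCl pH8 with KCl, BSA, glycerol and Tween-20, cleaved an Abz/nitrotyrosine-quenched decapeptide. Fluorescence (ex 320, em 430) was read at 0 and 20 min at room temperature. Delta was normalized to 5.8 microM ADEP and DMSO/no-enzyme controls.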
# gsp antagonist: antagonists of gsp mutant (McCune-Albright syndrome). AID 624288. actives 0.4% (n = 340,000). Potency, µM (titrated, usually from 76.9 µM), for inactives: at the top dose activity change, negative = inhibition, hits mostly inhibitors. gsp-mutant cells, cAMP HTRF, 30 min; control for the full effect not named in the record; active = falling curve of any shape with a large fitted effect; inconclusive = falling curve, mostly with a smaller effect; inactive = flat or rising curve; cell line not stated here;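 also: intracellular cAMP measured with PDE inhibitor Ro 20-1724 present during compound exposure; potency is read from the fitted curve at half-maximal effect; % is scaled to controls: 0 for no effect and ±100 for the full control effect; nearly all actives have a fitted effect of over 65% in size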
#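 Cells in G418 medium, seeded 16-24 h, 37C; buffer exchange to DPBS + 1 mM CaCl2, 0.5 mM MgCl2, 0.05% BSA; cpds in DMSO + […] (300 uM stock), 30 min 37C; HTRF cAMP detection.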
# TRPV1 potentiator: potentiators of human vanilloid receptor 1 (TRPV1). Q8NER1. TRPV1-expressing cells, Fluo-8 calcium influx, capsaicin EC20 potentiation; host cell line not named in the record; control for the full effect not named in the record. potentiation, % at 8.33 µM. actives 0.02% (n = 320,000). AID 540277; active means potentiation above 80%; inconclusive means 30% to 80%; inactive means below 30%; also: 0% is about no effect
# Target sequence (Q8NER1 whole entry, looked up): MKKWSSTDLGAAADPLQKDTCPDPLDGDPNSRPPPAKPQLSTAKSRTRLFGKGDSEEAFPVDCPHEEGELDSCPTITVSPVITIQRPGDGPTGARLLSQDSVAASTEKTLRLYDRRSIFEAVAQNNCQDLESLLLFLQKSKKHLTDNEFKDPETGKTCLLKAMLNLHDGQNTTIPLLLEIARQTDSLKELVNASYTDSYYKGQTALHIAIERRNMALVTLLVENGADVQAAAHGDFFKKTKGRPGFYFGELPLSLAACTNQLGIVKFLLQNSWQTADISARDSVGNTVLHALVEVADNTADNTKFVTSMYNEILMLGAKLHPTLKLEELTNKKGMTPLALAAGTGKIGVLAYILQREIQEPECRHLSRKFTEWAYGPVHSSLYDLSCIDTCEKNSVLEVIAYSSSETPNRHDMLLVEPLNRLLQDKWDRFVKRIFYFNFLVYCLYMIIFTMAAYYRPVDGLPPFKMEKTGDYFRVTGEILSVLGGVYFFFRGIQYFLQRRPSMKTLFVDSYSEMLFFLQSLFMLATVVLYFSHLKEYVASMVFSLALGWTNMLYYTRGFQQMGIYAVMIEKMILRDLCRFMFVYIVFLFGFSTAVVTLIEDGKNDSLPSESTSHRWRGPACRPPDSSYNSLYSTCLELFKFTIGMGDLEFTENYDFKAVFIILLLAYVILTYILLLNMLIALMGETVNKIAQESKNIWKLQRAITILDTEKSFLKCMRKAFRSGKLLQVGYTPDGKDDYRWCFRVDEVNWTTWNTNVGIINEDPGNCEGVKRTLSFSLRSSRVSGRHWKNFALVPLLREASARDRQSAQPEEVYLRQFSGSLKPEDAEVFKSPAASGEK
#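 Fluo-8 calcium influx in TRPV1-expressing cells, kinetic read (ex 480/em 520 nm). Compound added and read 3 min for agonist activity, followed by capsaicin at EC20 final and 2 min further read for enhancement.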
# Sfp inh: inhibitors of Bacillus subtilis Sfp phosphopantetheinyl transferase. Q9F4F7. Biochemical Sfp PPTase activity, qHTS. Potency, µM, for inactives: max response, negative = inhibition, usual class: inhibitors. actives 3.5% (n = 310,000). AID 1490; active = well fitted inhibition curve with a large enough effect; inconclusive = small, poorly fitted or top-dose-only effect, or another doubt; inactive = no such curve, though single readings can be large or run the other way;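 also: the enzyme is Sfp with the accession as filed and its product quenches rhodamine fluorescence; potency is read from the fitted curve at half-maximal effect; 0% = enzyme reaction without inhibitor and -100% = no enzyme wells; top concentration of the series not given in the record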
#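 Fluorescence-quenching assay with 15 nM Sfp, 5 uM rhodamine-CoA and 12.5 uM BHQ-2-labelled ybbR peptide in pH 7.6 Hepes/MgCl2 buffer. Enzyme was pre-incubated with compound for 15 min at room temperature. Rate was taken from the 30-min fluorescence change (525/598 nm).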
# gsp agonist: activates gsp, the McCune-Albright syndrome mutation; gsp mutant cells, cAMP HTRF, 30 min; control for the full effect not named in the record; Potency, µM (highest dose often 76.9 µM), for the others: top-dose activation (cAMP increase), actives largely listed as activators; actives 0.13% (n = 340,000); AID 624287; active = well fitted activation curve with a large enough effect; inconclusive = small, poorly fitted or top-dose-only effect, or another doubt; inactive = no such curve, though single readings can be large or run the other way; cell line not stated here;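 also: phosphodiesterase inhibitor Ro 20-1724 added with compounds to block cAMP breakdown; potency is read from the fitted curve at half-maximal effect; nearly all actives have a fitted effect of over 60% in size; about a fifth of the inactives were tested at one dose only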
#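 Cells stably selected in G418 were plated at 2000/well, grown 16-24 hr, then given compounds in DMSO with the PDE inhibitor […] (300 uM solution added) for 30 min at 37C; cAMP was read by HTRF.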
# An asterisk follows results filed as active; ? = inconclusive; / = not tested or not shown; [ ] = another dose, or the depositor's remark. The order is random. Share with any hit: about 5.1%.
no.	mol	Sfp inh	Menin-MLL FL inh	ClpP mod	TRPV1 potentiator	D2 PAM	gsp agonist	gsp antagonist
1	O=C(Nc1ccc2c(c1)CCCN2C(=O)c1cccs1)c1c(F)cccc1Cl	-3%	-0.5	0.8%	-2	-1	-33%	-20%
2	CC(C)Nc1nc2nonc2nc1Nc1ccccc1	31%[activator]	6.1	/	-5	-13	24%[15.4 µM]	-15%
3	CCc1nc2sc3c(=O)[nH]cnc3c2c2c1CSC(C)(C)C2	45µM*	2.7	?	14	-7	4%	12%
4	COc1ccc(S(=O)(=O)Nc2cccc3c2O[C@H](CN(C)C(=O)Nc2ccc(C(F)(F)F)cc2)[C@@H](C)CN([C@H](C)CO)C3=O)cc1	/	/	-0.1%	/	-4	/	-22%
5	Cc1ccc(/C=N/N2C(=O)C3C(C2=O)C2C=CC3C23CC3)o1 (stereo unspecified)	-6%	2.0	-2.8%	6	-17	6%	3%
6	COc1ccc(-c2ocnc2C(=O)Nc2ccccc2N2CCCCC2)cc1	-2%	2.4	32µM*	4	3	27%	1%
7	COc1ccc(Cl)cc1NC(=S)N1CCN(c2ncccn2)CC1	?	-1.2	/	15	-2	-13%	0%
8	COc1ccc(/C=N\NC(=O)COc2ccc(C(C)(C)C)cc2)cc1Cn1nc(C)cc1C	-3%	-1.5	-2.9%	-8	8	-1%	0%
9	Cc1onc(-c2ccccc2Cl)c1C(=O)N1CCN=C1SCc1cccnc1	-2%	-1.0	-1.0%	-4	-13	-18%	-12%
10	O=C(c1ccc(CS(=O)(=O)c2ccccc2)o1)N1CCOCC1	-13%	-4.0	0.5%	-5	-11	-27%	2%
11	CN(C)CCN(C(=O)C1=COCCO1)c1nc2ccc(F)cc2s1	/	/	1.2%	/	-48	-6%[15.4 µM]	3%
12	COC(=O)c1[nH]c(=O)c2ccccc2c1O	16%	4.3	?	-3	-41	-23%	10%
13	CCOc1ccc(S(=O)(=O)Nc2cc(S(=O)(=O)N(CC)CC)ccc2N2CCCC2)cc1	-1%	0.9	-4.2%	-9	-15	-1%	-8%
14	Cc1ccc(CNC(=O)CN(C)C2=NS(=O)(=O)c3ccccc32)cc1	/	/	-13%	2	-5	-5%	-6%
15	COc1cc(/C=C2/SC(=S)N(Cc3ccccc3)C2=O)cc(Cl)c1O	-3%	?	-2.2%	-5	-6	9%	4%
16	CCOc1ccc(NC(=O)Cc2nnc(SCC(=O)N3CCOCC3)n2C)cc1	8%	/	-2.6%	28	-21	2%[15.4 µM]	10%
17	COc1ccc(C(=O)NCCNC(=O)c2ccccn2)cc1	10%	-9.3	/	2	3	-17%	3%
18	O=C(CCc1nc(-c2ccccc2)no1)Nc1cc(C(F)(F)F)ccc1Cl	?	10	2.2%	5	-9	-1%	-4%
19	COc1cc(NS(=O)(=O)N2CCCC2)cc(OC)c1OC	6%	3.1	-0.4%	-4	-7	-9%	-2%
20	CN(CCOc1ccccc1)C(=O)c1ccc(Cl)c(S(=O)(=O)N2CCCCC2)c1	/	/	-2.2%	-22	-10	21%	-10%
21	Cc1cc(C)c2c(N)c(C(=O)Nc3c(C)n(C)n(-c4ccccc4)c3=O)sc2n1	-6%	-0.2	-11%	-4	-10	-2%	-1%
22	O=C(N/N=C/c1ccccc1)c1cc(-c2ccc3c(c2)OCO3)n[nH]1	12%	5.2	/	15	-6	-27%	-20%
23	CCC(C)(C)NC(=O)CN(C(=O)CCC(=O)Nc1ccccn1)c1ccc2c(c1)OCO2	22%	1.4	/	-7	-4	16%	-3%
24	Cc1c(OC(C)C(=O)NCc2ccncc2)ccc2c3c(c(=O)oc12)CCC3 (stereo unspecified)	21%	/	4.2%	-2	-7	-44%[inhibitor]	-27%
25	OC(CN1CCOCC1)Cn1cnc2ccccc21 (stereo unspecified)	17%	1.2	/	1	-1	11%	13%
26	CCOc1cc(N2CCOCC2)c(OCC)cc1NC(=O)c1ccc(OC)c(S(=O)(=O)N2CCOCC2)c1	/	/	0.9%	/	-5	-3%[15.4 µM]	0%
27	CNC(=O)c1c(NC(=O)CS(=O)(=O)c2ccc(Cl)cc2)sc(C)c1C	/	/	-0.8%	29	5	27%	-8%
28	Cc1ccc(/C=C(\NC(=O)c2ccc(C)cc2)C(=O)NCCCn2ccnc2)cc1	7%	-8.0	/	11	-10	-3%[15.4 µM]	2%
29	CCCCN(CC)C(=O)c1ccc2c(c1)OCO2	6%	1.6	-21%	-16	-3	-12%	-16%
30	COC(=O)C1=C(C)N(c2ccc(C)c(C)c2)/C(=C/c2ccco2)C1=O	?	22	/	6	-7	16%[15.4 µM]	-32%

# A few values from the results shown:
# Entry of `Cc1cc(C)c2c(N)c(C(=O)Nc3c(C)n(C)n(-c4ccccc4)c3=O)sc2n1` in Menin-MLL FL inh: -0.2
# Entry of `Cc1c(OC(C)C(=O)NCc2ccncc2)ccc2c3c(c(=O)oc12)CCC3` (stereo unspecified) in Sfp inh: 21%

# Entries shown so far containing a CF3 group:
no.	mol	Sfp inh	Menin-MLL FL inh	ClpP mod	TRPV1 potentiator	D2 PAM	gsp agonist	gsp antagonist
4	COc1ccc(S(=O)(=O)Nc2cccc3c2O[C@H](CN(C)C(=O)Nc2ccc(C(F)(F)F)cc2)[C@@H](C)CN([C@H](C)CO)C3=O)cc1	/	/	-0.1%	/	-4	/	-22%
18	O=C(CCc1nc(-c2ccccc2)no1)Nc1cc(C(F)(F)F)ccc1Cl	?	10	2.2%	5	-9	-1%	-4%

# From entry 1 as far as 6, as listed above:
no.	mol	Sfp inh	Menin-MLL FL inh	ClpP mod	TRPV1 potentiator	D2 PAM	gsp agonist	gsp antagonist
1	O=C(Nc1ccc2c(c1)CCCN2C(=O)c1cccs1)c1c(F)cccc1Cl	-3%	-0.5	0.8%	-2	-1	-33%	-20%
2	CC(C)Nc1nc2nonc2nc1Nc1ccccc1	31%[activator]	6.1	/	-5	-13	24%[15.4 µM]	-15%
3	CCc1nc2sc3c(=O)[nH]cnc3c2c2c1CSC(C)(C)C2	45µM*	2.7	?	14	-7	4%	12%
4	COc1ccc(S(=O)(=O)Nc2cccc3c2O[C@H](CN(C)C(=O)Nc2ccc(C(F)(F)F)cc2)[C@@H](C)CN([C@H](C)CO)C3=O)cc1	/	/	-0.1%	/	-4	/	-22%
5	Cc1ccc(/C=N/N2C(=O)C3C(C2=O)C2C=CC3C23CC3)o1 (stereo unspecified)	-6%	2.0	-2.8%	6	-17	6%	3%
6	COc1ccc(-c2ocnc2C(=O)Nc2ccccc2N2CCCCC2)cc1	-2%	2.4	32µM*	4	3	27%	1%

# Next structures.
no.	mol	Sfp inh	Menin-MLL FL inh	ClpP mod	TRPV1 potentiator	D2 PAM	gsp agonist	gsp antagonist
31	CS(=O)(=O)N(Cc1ccccc1)c1ccc(C(=O)N2CCOCC2)cc1	7%	0.3	?	5	-6	22%[15.4 µM]	-6%
32	COc1cc(C(=O)NC(=S)NCc2ccncc2)cc(OC)c1OC	/	/	-1.3%	/	-14	-20%	/
33	O=C(NCC(=O)N(c1ccccc1)C(C(=O)NC1CCCC1)c1cccnc1)c1ccco1 (stereo unspecified)	-1%	-0.4	-0.3%	-3	8	-1%	-7%
34	CC1(C)Cc2c(cnn2-c2ccccc2)C(=O)/C1=N\NC(=O)c1ccccc1	1%	-2.5	-0.4%	-11	-1	-37%[inhibitor]	6%
35	CC1CCCC(C)N1CC(O)COCc1ccccc1 (stereo unspecified)	-1%	-0.5	/	1	-4	?	7%
36	Cn1c(=NCC(O)COc2ccccc2)sc2ccccc21 (stereo unspecified)	-1%	1.6	0.9%	-1	-21	-5%	5%
37	CCC(=O)c1ccc(OCC(=O)NCCC2=CCCCC2)c(OC)c1	2%	-6.3	-2.8%	26	-4	-16%	-11%
38	O=C1[C@@H]2Cc3c([nH]c4ccccc34)C(c3ccccc3)N2C(=O)CN1C1CCN(Cc2ccccc2)CC1 (stereo partly specified)	-15%	1.5	/	22	-21	19%[15.4 µM]	0%
39	O=C(O)CC12CC3CC(C1)CC(n1ncc(NCc4ccc(F)cc4Cl)c(Cl)c1=O)(C3)C2	7%	6.0	2.4%	3	-3	6%	-2%
40	CCC(=O)Nc1ccccc1C(=O)N1CCOCC1	8%	0.0	-0.9%	20	-12	7%	-2%
41	O=C(CS(=O)(=O)c1ccccc1)NC1CCCCC1	4%	-1.9	-0.4%	0	-4	-6%	7%
42	CCN(CC)CCOC(=O)c1ccc2c(c1)OCCO2	-2%	2.0	-4.1%	-2	-16	-33%[inhibitor]	1%
43	CC12CCC(C/C1=N\OC(=O)c1ccc(F)cc1)C2(C)C (stereo unspecified)	10%	1.3	-0.1%	-12	6	-20%	15%
44	O=C(NCC1COc2ccccc2O1)c1ccc(NC(=O)C(c2ccccc2)c2ccccc2)cc1 (stereo unspecified)	15%	3.9	?	-1	-8	-28%	-14%
45	Cc1nn(CC(=O)Nc2cccc(S(N)(=O)=O)c2)c(C)c1[N+](=O)[O-]	7%	4.2	-2.2%	?	-14	7%	9%
46	Cc1ccccc1-c1cc(C(=O)Nc2nc3c(s2)CCCC3)c2ccccc2n1	-25%	2.6	-0.6%	10	-12	5%	0%

# Marked active in Sfp inh (from the list above):
entry | Structure | Sfp inh | Menin-MLL FL inh | D2 PAM | gsp agonist
3 | CCc1nc2sc3c(=O)[nH]cnc3c2c2c1CSC(C)(C)C2 | 45µM* | 2.7 | -7 | 4%
